Bioassay records: PubChem, PCMD
Calb biofilm kill = clotrimazole potentiators killing C. albicans biofilm, primary screen, 4-compound mixtures. C. albicans biofilm persisters + clotrimazole, fluorescence viability; primary screen in compound mixtures of four per well. inhibition, % at 7.6 µM. 0.02% of 120,000 active;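 active = inhibition above 30.3% in the primary screen of four-compound pools, then above 30% when the compound was retested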;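 also: compounds exposed to preformed 24 h biofilms for 48 h; the number belongs to the whole pool; some results filed as inactive read as strong as hits; inactives centre near 12; 0% = biofilm with clotrimazole alone and 100% = kill control; retested singly at about 60 µM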
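Assay system: C. albicans biofilms / Medium: RPMI/MOPS medium, pH 7.0 / Schedule: biofilm formation 24 h, compound exposure 48 h, 37 °C / Measured by: Alamar Blue fluorescence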
Starred values were filed as active, the others as inactive.

no.	smiles	Calb biofilm kill
1	COc1ccc(-c2nc(NC(=O)c3n[nH]c(=O)c4ccccc34)sc2C)cc1	12
2	O=C1C2C3C=CC(CC3)C2C(=O)N1/N=C/c1ccc(O)c(O)c1 (stereo not given)	4
3	COC(=O)CNC(=O)C(CCSC)NC(C)=O (stereo not given)	10
4	COc1ccc(N(C(=O)c2ccccc2)S(=O)(=O)c2cccs2)cc1	12
5	COc1cc([N+](=O)[O-])cc(/C=N/NC(=O)C(C)Nc2cccc3ccccc23)c1O (stereo not given)	5
6	COc1cc(NS(=O)(=O)c2ccc(NC(=O)/C=C/c3cccc([N+](=O)[O-])c3)cc2)ncn1	12
7	N#C/C(=C(\O)C(F)(F)F)c1nnc2n1CCCCC2	12
8	O=C(/C=C/c1ccccc1)OCCCN=C1NS(=O)(=O)c2ccccc21	6
9	C/C(=N\NC(=S)NC(C)C)c1ccc(Cl)s1	11
10	CN(Cc1ccccc1)C(=O)CSc1cc(=O)n(C)c2ccccc12	5
11	Cc1cccc(-n2ncc3c(N4CCOCC4)ncnc32)c1	11
12	CC(C)OC(=O)CSc1nc(-c2ccc(F)cc2)cc(C(F)(F)F)n1	7
13	COc1cc(OC)c(NC(=O)c2ccccc2F)cc1Cl	12
14	Oc1ccccc1C1=NCCNC(C(F)(F)F)=C1	8
15	Cc1cc(/C=C2\C(=N)N3N=C(C(C)C)SC3=NC2=O)c(C)n1Cc1ccccc1	18
16	NC(=S)N/N=C/c1ncc(C(F)(F)F)cc1Cl	20
17	NS(=O)(=O)c1ccc(NC(=O)COC(=O)CCc2c[nH]c3ccccc23)cc1	18
18	Cc1cc2cc(C)c(NCCNC(=O)c3cccs3)nc2cc1C	21
19	O=C(CSc1nncs1)NC1CCCc2ccccc21 (stereo not given)	3
20	CCOC(=O)C1(Cc2ccc(Cl)cc2)CCN(Cc2ccon2)CC1	21
21	CCCCN=C1NN=C(c2ccc3c(c2)OCCO3)CS1	-8
22	COc1ccc(-n2c(=S)[nH]c3cc(C(=O)Nc4cc(OC)c(OC)c(OC)c4)ccc3c2=O)c(OC)c1	10
23	COc1ccc(NC(=O)C2CC(=O)N=C(N)S2)cc1 (stereo not given)	21
24	COc1ccc(/C=N/NC(=O)c2cccc(Br)c2)cc1COc1ccccn1	18
25	Cc1cc(-c2c(C(=O)N3CCOCC3)c(C)nn2-c2cccc(C(F)(F)F)c2)no1	17
26	COc1cc(NC(=O)CN2CCN(c3ccccc3)CC2)c(C)cc1[N+](=O)[O-]	16
27	O=C(Nc1ccc(Oc2ccc(NC(=O)Nc3ccccc3Cl)cc2)cc1)Nc1ccccc1Cl	3
28	COc1ccc(C(NC(=O)/C=C/c2ccco2)c2ccc(OC)c(OC)c2)cc1OC	2
29	CCN(CC)S(=O)(=O)c1ccc(Cl)c(NC(=O)COC(=O)/C=C/c2ccc(O)c(OC)c2)c1	16
30	N#CC1=C2SC=C(c3ccc(Br)cc3)N2CCCC1=O	26
31	COC(=O)C1C(C(=O)OC)C1(c1ccccc1)c1ccccc1 (stereo not given)	28
32	O=S(=O)(c1ccccc1)N1CCN=C1SCc1ccc(Cl)c(Cl)c1	9
33	COc1ccc(NC(=O)c2cc(F)c(F)cc2Cl)cc1Cl	24
34	Cc1ccc(CNC(=O)CC2Nc3c4ccccc4nc(=S)n3C2=O)cc1 (stereo not given)	16
35	COc1ccc(N(C(=O)CNC(=O)c2cccs2)C(C(=O)NCC2CCCO2)c2ccc(OC)c(OC)c2)cc1 (stereo not given)	14
36	O=C(CSc1ccc(-c2ccco2)nn1)NCc1ccccc1	10
37	CC1CCCCN1S(=O)(=O)c1ccc(C(=O)Nc2nnc(-c3ccccn3)o2)cc1 (stereo not given)	11
38	CC(C)CC1(C)NC(=O)N(Cc2cc([N+](=O)[O-])cc3c2OCOC3)C1=O (stereo not given)	-11
39	Cc1ccc(OCC(=O)N2N=C(c3ccncc3)CC2(O)C(F)(F)F)cc1C (stereo not given)	12
40	CC(=O)N1CC=CC1(C)C(=O)O (stereo not given)	19
41	COc1ccccc1NC(=O)c1ccc(NC(=O)CSc2n[nH]c(N)n2)cc1	4
42	O=C(Nc1cccnc1Cl)c1cccc(F)c1	7
43	Cc1cc(C)n(CCC(=O)Nc2cccc(F)c2)n1	8
44	CCCCc1n[nH]c(=S)n1Cc1ccc(C)cc1	11
45	C[C@@H]1C[C@H]2[C@@H]3C[C@H](F)C4=CC(=O)C=C[C@]4(C)[C@@]3(F)[C@@H](O)C[C@]2(C)[C@@]1(O)C(=O)CO	13
46	CC1=NN(c2ccc(C(F)(F)F)cn2)C(=O)C1	11
47	C=CCNC(=O)c1cc2cccc(OC)c2oc1=O	12
48	NC(=O)c1ccc(N2CCOCC2)nc1	5
49	COc1cccc(Oc2c(C)oc3c(CN4CCCC4)c(O)ccc3c2=O)c1	27
50	CC(C)CNC(=O)CC(c1ccccc1)c1ccccc1	8
51	COc1cc(C(=O)OCC(=O)NC2CCS(=O)(=O)C2)ccc1OCc1c(C)noc1C (stereo not given)	9
52	Cc1cnc(NC(=O)C(C)N2CCN(C)CC2)s1 (stereo not given)	6
53	CCNc1ccc(C(=O)Nc2ccc3nc(C)sc3c2)cc1[N+](=O)[O-]	9
54	COc1ccc(NS(=O)(=O)c2ccc3c(c2)CCO3)cc1	16
55	C/C(CC(=O)Nc1cc(C)ccn1)=N\NC(=O)c1ccc(C)cc1	11
56	CC(=O)O[C@]1(C(C)=O)CC[C@H]2[C@@H]3C[C@H](C)C4=CC(=O)CC[C@]4(C)[C@H]3CC[C@@]21C	10
57	CC(=O)Nc1ccc(-c2csc(Nc3ccccn3)n2)cc1	0
58	Cc1cccc(Cn2c(=O)n(CCCC(=O)NCc3ccco3)c(=O)c3ccccc32)c1	17
59	O=C(c1cc(COc2ccc(F)cc2Cl)on1)N(Cc1ccncc1)CC1CCCO1 (stereo not given)	10
60	C[C@H](N)c1nnc(SCC(N)=O)o1	8

Of the compounds above, these have a cyano group:
no.	smiles	Calb biofilm kill
7	N#C/C(=C(\O)C(F)(F)F)c1nnc2n1CCCCC2	12
30	N#CC1=C2SC=C(c3ccc(Br)cc3)N2CCCC1=O	26

(next part)
no.	smiles	Calb biofilm kill
61	N=C1C(c2nc3ccccc3s2)=C(O)CN1NC(=O)c1ccc([N+](=O)[O-])cc1	10
62	CCCCN(CC)S(=O)(=O)c1c(C)[nH]c(=O)[nH]c1=O	10
63	Cc1ccc(S(=O)(=O)N2CCOCC2)cc1C(=O)Nc1ccc(C(N)=O)cc1	16
64	Cc1nnc2ccc(-c3ccc(NS(C)(=O)=O)cc3)nn12	6
65	Cn1c(=O)c([N+](=O)[O-])c(NCCc2ccccc2)c2ccccc21	17
66	CN(CC(=O)Nc1ccc(N2CCOCC2)cc1)CC(=O)Nc1ccc(C(F)(F)F)cc1	9
67	CC(=O)c1ccc(S(=O)(=O)Nc2ccc(-c3cn4c(n3)SCC4)cc2)cc1	20
68	CCNC(=O)C1CCCN(c2nc(C)cc(C)n2)C1 (stereo not given)	2
69	CN(C(=O)CC(=O)Nc1ccc(Cl)c(Cl)c1)c1ccccc1	19
70	COc1ccc(-n2c(C)nn(CC3CC3)c2=O)cc1	-10
71	O=C(Nc1ccc(N2CCOCC2)cc1)Nc1ccc2nsnc2c1	14
72	CCOC(=O)c1ccc(NC(=O)CN2C(=O)CSCC2=O)cc1	2
73	S=c1[nH]cc(-c2ccc(Cl)cc2)n1-c1ccccc1	1
74	Cc1ccc(CNc2ccc3c(c2)ncn3C(C)(C)C)cc1	21
75	CNC(=S)N1CCc2ccccc2C1	13
76	c1coc(C2OCC3(CO2)COC(c2ccco2)OC3)c1 (stereo not given)	25
77	COc1ccc(C(=O)Nc2c(Cl)cc(Cl)cc2C(=O)N2CCOCC2)cc1	14
78	CN(CC(=O)Nc1ccc(Cl)c(Cl)c1)C(=O)/C=C/c1ccc(F)cc1	12
79	CCOC(=O)c1ccc(NC(=O)CSc2nc3ncccc3[nH]2)cc1	12
80	O=S(=O)(Nc1ncnc2scc(-c3ccc(F)cc3)c12)c1cc(F)ccc1F	14
81	CCOC(=O)C1CN(S(=O)(=O)c2ccc(Cl)cc2)c2cc(S(=O)(=O)CC)ccc2O1 (stereo not given)	15
82	NNC(=O)c1oc2nc(-c3ccco3)cc(-c3ccco3)c2c1N	7
83	Cc1ccc(N=Cc2c(O)ccc3ccccc23)cc1F	5
84	Cc1nnc(SCc2ccc([N+](=O)[O-])cc2)[nH]c1=O	14
85	N#CC1=C2N=C(N)c3ccccc3N2C2=C(C(=O)CCC2)C1c1cccc(Cl)c1 (stereo not given)	5
86	Cc1cc(-c2ccc(N3CCOCC3)cc2)nc2ccccc12	13
87	O=C(COC(=O)/C=C/c1cn(-c2ccccc2)nc1-c1ccc2c(c1)OCCO2)NC1CCS(=O)(=O)C1 (stereo not given)	19
88	Cc1cc(C2=NNC(=NCCc3ccccc3)SC2)c(C)n1CC1CCCO1 (stereo not given)	7
89	O=C(/C=C/c1ccccc1)NCCc1ccc2c(c1)OCCO2	6
90	O=C(N/N=C/c1coc2ccccc2c1=O)c1cn(-c2ccccc2)nc1-c1ccc(F)cc1	5
91	CC1CCN(CCOc2ccc(OCc3ccccc3)cc2)CC1	16
92	O=C1NN=COc2ccccc21	18
93	Cn1cc(C(=O)N/N=C/c2cccs2)c2ccccc21	18
94	O=C(COC(=O)c1cncc(Br)c1)NCc1ccccc1Cl	11
95	O=C(Nc1nn[nH]n1)c1cccc([N+](=O)[O-])c1	-2
96	COc1ccc(CC(NC(C)=O)C(=O)NC2CCN(C(=O)c3cc(OC)c(OC)c(OC)c3)CC2)cc1 (stereo not given)	1
97	COc1cc(C(c2c(C)[nH][nH]c2=O)c2c(C)[nH][nH]c2=O)cc(OC)c1OC	3
98	O=C(CCn1cccc(C(F)(F)F)c1=O)Nc1cccc(C(F)(F)F)c1	20
99	Cc1ccccc1C(=O)N/N=C1\SCC(=O)N1Cc1ccco1	-3
100	COC(=O)CC1C(=O)NC(C)=C1C(=O)OC (stereo not given)	15
101	Cn1cc(CN2CCC(C(=O)N3CCCCC3)CC2)c(-c2ccccc2F)n1	-4
102	CCOc1cc(C=O)ccc1OCc1cc(=O)n2cc(C)ccc2n1	6
103	CC1(C)C2CC=C(/C=N/NC(=O)c3ccccc3O)C1C2 (stereo not given)	18
104	C#CCNC(=O)C1=C[C@H](c2ccc(C(F)(F)F)cc2)C[C@H](OCCCCO)O1	18
105	CC(C)(C)Cc1nnc(NC(=O)Cc2cccs2)s1	1
106	Cc1cc(Br)c2c(c1)/C(=C/C(=O)c1cccs1)C(=O)N2	21
107	O=C(N/N=C\c1cccs1)c1sccc1-n1cccc1	-11
108	COc1ccc(NC(=O)C(Cc2ccccc2)n2cccc2)c(OC)c1 (stereo not given)	18
109	COCCN(CC(=O)Oc1ccccc1P(=O)(OC)OC)Cc1ccccc1	23
110	Cc1ccc(C)c(CSc2ccc3nnc(-c4ccccn4)n3n2)c1	6
111	N#CC(C(N)=O)=C1CCCCC1	2
112	CC(C)(C)c1cc(C(=O)C[n+]2ccc(C(=O)NCCCO)cc2)cc(C(C)(C)C)c1O	29
113	CCN(CC)S(=O)(=O)c1ccc(N(C)C)c(NC(=O)CC(NC(C)=O)c2ccccc2)c1 (stereo not given)	2
114	COC(=O)c1ccc(SC)cn1	7
115	CN(C)c1cc(-c2ccc([N+](=O)[O-])cc2)oc(=O)c1Cl	19
116	O=C(COC(=O)C1CCCC1)NCc1ccc(Cl)cc1	17
117	CCOC(=O)C1C(=O)CC(C)(O)C(C(=O)OCC)C1c1ccc([N+](=O)[O-])cc1 (stereo not given)	8
118	COc1cccc(C(=O)NCC(=O)OCC(=O)Nc2cc(OC)c([N+](=O)[O-])cc2C)c1	12
119	CC1CCCCC1NC(=S)Nc1cccc(S(=O)(=O)N(C)C)c1 (stereo not given)	3
120	O=C(NN=C(Cc1ccccc1)Cc1ccccc1)c1ccccc1O	3

(more compounds)
no.	smiles	Calb biofilm kill
121	Cc1ccccc1NC(=S)N/N=C1\CC(C)(C)Oc2ccc(O)cc21	14
122	O=C(COC(=O)c1cc(-c2cccc(Br)c2)nc2ccccc12)NCC1CCCO1 (stereo not given)	12
123	Cc1ccc(C)c(N2CCN(C(=O)Cc3ccc(-n4c(=O)[nH]c5ccsc5c4=O)cc3)CC2)c1	6
124	O=C(O)c1sc2cccc(Cl)c2c1Cl	14
125	CCCCC(=O)Nc1cccc(NC(=S)NC(=O)Cc2ccccc2)c1	18
126	O=[N+]([O-])c1ccc(-c2nc(-c3ccncc3)no2)cc1	17
127	COc1cc(/C=N/NC(=O)c2ccc3nc[nH]c3c2)ccc1O	-33
128	COc1ccc(OC)c(C(=O)c2ccc(C(=O)Nc3ccccc3)cc2)c1	10
129	COc1ccc(Oc2coc3cc(OC(=O)/C=C/c4ccc(F)cc4)ccc3c2=O)cc1	20
130	COc1ccc(-c2noc(CCC(=O)NC3CCCC3)n2)cc1	11
131	COCCN(CCOC)S(=O)(=O)c1ccc(Cl)nc1	10
132	CC(C)(C)c1cc(NC(=O)CSc2nnc(NCc3ccccc3)s2)n(-c2ccccc2)n1	12
133	Cc1ccc2c(n1)CC(C)(C)C/C2=N\O	-10

Ordered by length of the SMILES (lowest first): six of the compounds above.
no.	smiles	Calb biofilm kill
14	Oc1ccccc1C1=NCCNC(C(F)(F)F)=C1	8
18	Cc1cc2cc(C)c(NCCNC(=O)c3cccs3)nc2cc1C	21
69	CN(C(=O)CC(=O)Nc1ccc(Cl)c(Cl)c1)c1ccccc1	19
20	CCOC(=O)C1(Cc2ccc(Cl)cc2)CCN(Cc2ccon2)CC1	21
109	COCCN(CC(=O)Oc1ccccc1P(=O)(OC)OC)Cc1ccccc1	23
118	COc1cccc(C(=O)NCC(=O)OCC(=O)Nc2cc(OC)c([N+](=O)[O-])cc2C)c1	12

Only part of the results is shown; the hit share may differ from the screen's.
